Screening results: PubChem BioAssay, ICCB-Longwood Screening Facility, Harvard Medical School
VACV E9 pol inh – vaccinia E9 polymerase processive synthesis inhibition; in vitro processive DNA synthesis, absorbance read-out; stronger effect = lower value; some inactives read as strong as hits; normalized absorbance, % (concentration not given with the values); hit rate 0.94% among 46,000;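 active = replicate mean up to 90% and picked by the depositor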;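 note: 100% = median of the test wells of a plate; 100 nL library stock went into each well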
* marks the source's active call; other numbers are inactive results. The list is partial; count on the stated rates, not on these rows.

SMILES	VACV E9 pol inh
Cc1ccccc1NC1CC(C)N(C(=O)CN2C(=O)c3ccccc3C2=O)c2c(C)cccc21 (stereo not drawn)	99.9
O=C(CSC1CCCC1)c1ccco1	86.0
CC1CCCC(NC(=O)CSC(=O)c2ccccc2)C1C (stereo not drawn)	96.5
CCN(CC)c1c(C#N)c(SCC(=O)c2cccs2)cc2c1CCCC2	100.4
c1ccc2nc(N3CCNCC3)ccc2c1	100.2
CC(C)(C)C(=O)Nc1ccccn1	100.7
COC(=O)CN1C=C(C(=O)OC)C(c2ccc(O)cc2)C(C(=O)OC)=C1	100.8
Nn1cnnc1SCc1ccccc1	100.0
O=C(O)CCN=C1NC(=O)CS1	106.8
CSc1nnc(CNC(=O)c2cccs2)n1-c1cccc(Cl)c1	100.0
CC(C)(C)NC[C@@H](O)COc1nsnc1N1CCOCC1	95.3
Cc1nn2c(nc1=O)NNC2(C)c1ccccc1 (stereo not drawn)	99.1
CC(C)CCNC(=O)c1cccc2c1-c1ccccc1C2=O	108.8
COc1ccccc1CC(=O)Nc1ccc(-c2noc(COc3ccc(Cl)c(C)c3)n2)cc1	86.7
C=CCN(CC=C)CC(O)Cn1cnc2c1c(=O)n(C)c(=O)n2C (stereo not drawn)	98.7
C[N+]1(C)C2CCC1CC(OC(=O)c1ccccc1)C2 (stereo not drawn)	100.3
O=C(O)c1ccc(Oc2ccccc2)cc1	96.3
CC1=C(C(=O)Nc2cc(C)ccc2C)C(c2ccc(N(C)C)cc2)NC(=S)N1 (stereo not drawn)	101.0
O=C1c2cccnc2C(=O)N1CCc1ccc(S(=O)(=O)N2CCCC2)cc1	102.0
CCOC(=O)c1sc(SC)c2c1CC(c1ccc(OC)cc1)CC2=O (stereo not drawn)	87.4
Cc1ccc(-c2nc3ccccc3s2)cc1NC(=O)c1ccccc1	98.2
O=C(OC(Cc1ccccc1)C(F)(F)F)c1ccc(Cl)cc1Cl (stereo not drawn)	100.6
Cc1ccnc(SCC(=O)N2N=CCC2c2ccccc2)n1 (stereo not drawn)	102.1
O=C1CC(c2ccccc2)CN1Cc1ccccc1 (stereo not drawn)	99.7
O=C(OCc1c(Cl)cccc1Cl)c1ccccn1	107.6
CCc1cc2c(=O)c(-c3csc(C)n3)coc2cc1OC(C)C(=O)O (stereo not drawn)	98.7
CC(C)NC(=O)c1nc(-c2cccc(F)c2)n2c1CCCCC2	96.9
O=c1cc(-c2ccccc2)nc(Nc2nc3ccccc3o2)[nH]1	99.5
Cn1c[n+](/N=C(/[O-])c2ccc(C(=O)ON3C(=O)CCC3=O)cc2)cn1	94.5
CC(NC(=O)Cc1cccs1)C(c1cccs1)N1CCN(c2ccccc2)CC1 (stereo not drawn)	100.6
O=C(NC1CC1)c1cc(=O)c2ccccc2o1	102.2
CCCNC(=O)c1nc(-c2ccc(Cl)cc2)n2c1CCCCC2	97.4
CC(C)=CCC/C(C)=C/CC/C(C)=C/CSCC(=O)O	98.5
C1=C(c2c[nH]c3ccccc23)CC(c2ccccc2)=NN=C1c1ccccc1	99.6
O=C1c2ccccc2S(=O)(=O)N1CCS(=O)(=O)c1ccc(Cl)cc1Cl	109.1
Nc1scc[n+]1Cc1cccc2cccnc12	91.0
CCN(CC)c1ccc(CN2CCN(Cc3ccccc3)CC2)cc1	98.4
Cc1ccc(Cn2c(CN3CC(C)OC(C)C3)nc3c2c(=O)[nH]c(=O)n3C)cc1 (stereo not drawn)	92.0
c1csc(C2NCCc3[nH]cnc32)c1 (stereo not drawn)	117.3
O=C1c2ccccc2C(=O)N1c1ccc(Cl)cc1	95.9
COc1ccc(-c2ocnc2C(=O)NCc2nn(-c3ccccc3)nc2C)cc1	100.8
O=C(CC(SCc1ccc(Cl)cc1)C(=O)O)c1ccc(Cl)cc1 (stereo not drawn)	96.8
COc1cccc(OC)c1C(=O)Nc1ccccc1NC(=O)c1c(OC)cccc1OC	100.1
CC(=O)N(CCc1ccccc1)C1CC(=O)N(c2ccccc2)C1=O (stereo not drawn)	100.3
CCNc1c2c(nc3ccccc13)CC(C)(C)CC2=O	80.7
Cc1cccc(NC(=O)CSc2ccc3ccccc3c2)n1	95.6
Cc1nnc(C)n1/N=C\c1cccc(O)c1	78.0
Clc1ccc(SC2CN(C(c3ccccc3)c3ccccc3)C2)cc1	97.4
C=C(C)c1cccc(C(C)(C)NC(=O)N2c3ccc(F)cc3CCC2C)c1 (stereo not drawn)	97.4
COC(=O)CCC(=O)Nc1ccc(S(=O)(=O)Nc2cc(C)cc(C)c2)cc1	100.9
O=C1c2ccccc2C(O)N1c1cccnc1 (stereo not drawn)	102.1
O=C(Cn1ncc2c(=O)oc3ccccc3c21)N1CCN(C2CCCCC2)CC1	99.5
CCOC(=O)c1[nH]c(COC(C)=O)cc1C	101.4
CCOc1ncccc1C(=O)Nc1cccc(C(F)(F)F)c1	102.3
Clc1cccc(NCc2cn3ccccc3n2)c1	92.4
Cc1cc(=O)n2nc(N3CCCC3C(=O)Nc3cccc(F)c3)sc2n1 (stereo not drawn)	113.0
CS[C@H](C)[C@H](OC(C)=O)C(=O)N(C)CCN(C)C (tested in a mixture with another compound)	15.1*
Cc1cccc(N(CC(=O)Nc2ccc3c(c2)oc2ccccc23)S(=O)(=O)c2ccccc2)c1	100.2
COc1cccc(C(CC(=O)c2ccc(Cl)cc2)C(C#N)C#N)c1 (stereo not drawn)	100.5
CCN1CCN(c2cc(-c3ccccc3)c3ccccc3n2)CC1	113.1

Next section:
SMILES	VACV E9 pol inh
Oc1cc2c(cc1O)CN(C(=S)NCCc1ccc(Cl)cc1)CCC2	99.4
CN(C)CC/C=C1\c2ccccc2Sc2ccc(Cl)cc21	90.7
O=C(CSc1ccccc1Cl)NC12CC3CC(CC(C3)C1)C2	92.6
Cc1ccc(S(C)(=O)=O)cc1	108.8
NC12CC3CC(C1)CC(C(=O)O)(C3)C2	94.4
O=C(Oc1ccc(C2SCCS2)cc1)C1CCCCC1	97.4
NC(=O)c1c(NC(=O)C2COc3ccccc3O2)sc2c1CCCC2 (stereo not drawn)	100.3
CCOC(=O)N1CCC2(CC1)C(C#N)=C(N)OC1=C2C(=O)CCC1	99.0
CC1=C(C(=O)OCc2ccccc2)C(c2ccoc2)C(C#N)=C(N)S1 (stereo not drawn)	98.6
O=C(O)c1ccc(C(F)(F)F)s1	101.0
CCS(=O)(=O)N1N=C(c2ccccc2)CC1c1cc2cc3c(cc2nc1Cl)OCCO3 (stereo not drawn)	99.9
O=C(OCc1nc2ccccc2s1)c1ccc(Cl)s1	100.5
COc1ccc2[nH]c3c(=O)n(CCCC(=O)N4CCCC4)c(=S)[nH]c3c2c1	102.9
O=C(NCc1ccccc1)c1csc2c1CCCC2	104.8
CC(C)(C)c1ccc(CSCC(=O)Nc2ccccc2C#N)cc1	100.4
NC1=NC(=O)/C(=C\c2cc3ccccc3nc2N2CCCCC2)S1	99.9
C[N+]1(CC(=O)OC2CCCCCCCCCCC2)CCCC1	99.9
C1CCN2C(C3N4CCCCN34)N2C1 (stereo not drawn)	99.8
CCCC1=NN(C(=O)C(C)(C)C)C(=O)C1Cc1c(F)cccc1Cl (stereo not drawn)	94.5
CCCNC(=O)CSc1nc2nc(C)c(Cc3cccc(C)c3)c(C)n2n1	100.9
COC(=O)CC1SC(=O)NC1=Nc1ccc(O)cc1 (stereo not drawn)	99.7
Cn1cc(CCC(=O)NC2CCCCC2)c2ccccc21	86.3
CC[C@H]1C(=O)OC[C@@H]1Cc1cccn1C	100.0
CC12CN(Cc3ccccc3)CC(C)(CN(Cc3ccccc3)C1)C2=O	99.9
C=CCn1c(=O)c(C(=O)NCc2cccnc2)c(O)c2ccccc21	103.1
O=C(NCCn1cc(SCC(=O)N2CCCCC2)c2ccccc21)c1ccccc1F	77.4
Cn1c(C(=O)N2CCN(c3ccccc3F)CC2)cc2c(=O)[nH]c3ccccc3c21	101.6
COC(=O)c1cc(CN2CCN(C)CC2)ccc1O	96.7
CCOC(=O)c1cccc(-c2ccc(C3C(C#N)=C(N)OC4c5ccccc5OC(=O)C43)o2)c1 (stereo not drawn)	99.6
CCOc1ccc(-n2c(CSc3nc(C)cc(C)n3)nnc2SC)cc1	98.7
O=C(O)CCN1C(=O)C2CC=CCC2C1=O (stereo not drawn)	102.0
COc1cccc(OCC(O)CN2CC(C)CC(C)C2)c1 (stereo not drawn)	101.4
Nc1nccc(-c2ccco2)n1	98.1
CCN(CC)S(=O)(=O)c1ccc(NC(=O)c2ccc(C)cc2)cc1	96.7
Cc1c(C(=O)O)oc2ccc3c(c12)C=CC1(CCCC1)O3	95.5
O=C(CSc1nnc2ccc3ccccc3n12)c1ccccc1	96.3
O=c1[nH]c2ccccc2n1CCCSc1nc2ccccc2[nH]1	100.0
COc1cc(/C=C\C(=O)OCn2nnc3ccccc3c2=O)cc(OC)c1OC	84.6
CN(C)c1ccc(C2CC(c3ccc(Br)cc3)=NN2S(C)(=O)=O)cc1 (stereo not drawn)	99.6
O=C1c2ccccc2C(O)(c2ccccc2)N1C1CC1 (stereo not drawn)	100.0

Part of the list above, comma-delimited.
canonical_smiles,VACV E9 pol inh
C1CCN2C(C3N4CCCCN34)N2C1 (stereo not drawn),99.8
CCCC1=NN(C(=O)C(C)(C)C)C(=O)C1Cc1c(F)cccc1Cl (stereo not drawn),94.5
CCCNC(=O)CSc1nc2nc(C)c(Cc3cccc(C)c3)c(C)n2n1,100.9
COC(=O)CC1SC(=O)NC1=Nc1ccc(O)cc1 (stereo not drawn),99.7
Cn1cc(CCC(=O)NC2CCCCC2)c2ccccc21,86.3
CC[C@H]1C(=O)OC[C@@H]1Cc1cccn1C,100.0
CC12CN(Cc3ccccc3)CC(C)(CN(Cc3ccccc3)C1)C2=O,99.9
C=CCn1c(=O)c(C(=O)NCc2cccnc2)c(O)c2ccccc21,103.1
O=C(NCCn1cc(SCC(=O)N2CCCCC2)c2ccccc21)c1ccccc1F,77.4
Cn1c(C(=O)N2CCN(c3ccccc3F)CC2)cc2c(=O)[nH]c3ccccc3c21,101.6
COC(=O)c1cc(CN2CCN(C)CC2)ccc1O,96.7
CCOC(=O)c1cccc(-c2ccc(C3C(C#N)=C(N)OC4c5ccccc5OC(=O)C43)o2)c1 (stereo not drawn),99.6
CCOc1ccc(-n2c(CSc3nc(C)cc(C)n3)nnc2SC)cc1,98.7
O=C(O)CCN1C(=O)C2CC=CCC2C1=O (stereo not drawn),102.0

Further compounds follow.
SMILES	VACV E9 pol inh
CC(=O)NC(C)c1nc2ccccc2n1Cc1ccccc1F (stereo not drawn)	102.0
CC1(C)C2CCC1(C)C(NCc1ccccc1)C2 (stereo not drawn)	99.2
Nc1ccccc1N1CCOCC1	97.1
COc1ccc(NC(=O)CC2SCCNC2=O)cc1 (stereo not drawn)	100.3
Cc1ccc(O)c(C(CC(=O)NCC2(c3ccccc3)CCOCC2)c2ccccc2)c1 (stereo not drawn)	97.8
CN(CC(=O)NCc1ccccc1)S(=O)(=O)c1ccc2c(c1)CCC(=O)N2	104.3
Cc1cc(C)c(C(=O)Nc2ccc(C)c(C)c2)c(CC(C)(C)C(=O)O)c1	97.0
CCc1ccc(NC(=O)C2CC(c3cn(CC)nc3C)=NO2)cc1 (stereo not drawn)	102.1
O=C(Nc1ccc(I)cc1)c1nsc(Cl)c1Cl	99.6
COc1ccccc1NC(=O)Nc1nnc(N2CCCCC2C)s1 (stereo not drawn)	94.3
C=CC1C[C@H]2CCC1C[C@@H]2C(O)c1ccnc2ccc(OC)cc12 (stereo partly drawn)	96.5
CC(=O)N1CC(C)C(=O)Nc2ccccc21 (stereo not drawn)	98.1
COC(=O)/C=C/c1cncc2ccccc12	95.8
O=C(Cn1c(=O)n(-c2ccccc2)c(=O)n1CC(=O)N1CCOCC1)N1CCOCC1	100.1
O=C(c1cccc2c1OCCCO2)N1CCSCC1	115.1
CCC(=O)c1ccc(OC)c(F)c1	96.2
CCc1ccccc1NC(=O)c1c[nH]c2ccccc2c1=O	98.7
COC(=O)c1cc(NC(=S)NN(C)C)ccc1Cl	93.4
O=C(NC1CCCCC1)c1cccc(S(=O)(=O)NCc2ccccc2)c1	91.6
Oc1ccc(Cl)cc1Sc1cc(Cl)ccc1O	77.2*
CCN(CC)S(=O)(=O)c1ccc(C(=O)N2CCN(Cc3ccccc3)CC2)cc1	101.1
O=C(Nc1nccs1)c1ccccc1C(F)(F)F	105.3
COc1ccc2c(c1)NC(=O)CC(C)(C)O2	94.6
Cc1cc(N2CC(C)CC(C)C2)nc2ccc(NC(=O)CCC(=O)N3CCCC3)cc12 (stereo not drawn)	102.5
CN(C)CC/C=C1/c2ccccc2COc2ccccc21	100.4
CC(C)c1ccccc1NC(=O)c1cc2ccccc2oc1=O	100.2
Cc1ccc(NC2SC(=O)N(c3ccc(C)cc3)C2=O)cc1 (stereo not drawn)	100.2
O=C1CCC(=O)N1CCOP1(=O)COc2ccccc2OC1	95.0
O=c1oc(-c2cccc(C(F)(F)F)c2)nc2ccccc12	88.2
COC(=O)C(C(=O)OC)=C1C2CC3CC(C2)CC1C3	100.1
CCOC(=O)C1=C(C2CC=CCC2)NC(=S)NC1C (stereo not drawn)	100.2
COc1cc(C=Nc2ccc(Cl)cc2)ccc1OC(=O)/C=C/c1cccs1	76.5
Cc1nn(CCO)c(C)c1Oc1ccccc1O	102.1
C/[N+]([O-])=C\C1C(=O)CCCC1=O	100.0
CC(=O)OCC(=O)[C@@]1(O)CCC2C3CCC4=CC(=O)CC[C@]4(C)C3[C@@H](O)C[C@@]21C (stereo partly drawn)	80.7
Cc1cccc(-n2c3nc(=O)[nH]c(=O)c-3cc3ccccc32)c1	97.9
CCOC(=O)C1CCN(CC(=O)c2ccc(OC)cc2)CC1	106.3
O=C(Nc1ccccc1)OCC#Cc1ccc(-c2ccccn2)s1	99.5
Cc1ccc(NC(=O)/C(CN(C)C)=N\O)cc1	100.6
O=C(c1ccco1)N1CCN(c2nc3ccccc3s2)CC1	98.9
FC(F)(F)c1nnc(-c2ccccc2)nc1Oc1ccccc1	113.7
Cc1ccc2c(Sc3ccc(Cl)cc3)c(C(=O)NC(C)c3ccc4c(c3)OCCO4)[nH]c2c1 (stereo not drawn)	102.4
CCc1ccc(NC(=O)Cc2cn(C)c3ccccc23)cc1	88.8
Nc1cc(N)nc(SCC(=O)N2c3ccccc3Sc3ccccc32)n1	100.0
